Screening data (PubChem BioAssay)
StopGo FLuc – Primary qHTS Assay for Foot and Mouth Disease Virus Antivirals against NCGC Sytravon and CBC Compound Libraries: Firefly Luciferase Signal; HEK cells with a luciferase reporter of 2A StopGo recoding; Potency, µM (series often up to 57.5 µM), for inactives: top-dose signal change, negative = less light; 0.23% of 120,000 active; active = well fitted falling curve with a large enough effect; inconclusive = small, poorly fitted or top-dose-only effect; inactive = no such curve, though single readings can be large or run the other way; note: nearly all actives have a fitted effect of over 60% in size; overnight with compound
2A Renilla – Primary qHTS Assay for Foot and Mouth Disease Virus Antivirals against NCGC Sytravon and CBC Compound Libraries: Renilla Luciferase Signal. Potency, µM (titrated, usually from 57.5 µM), for the others: at the top dose signal change, negative = less light. AID 1745857, 2022. HEK cells with a luciferase reporter of 2A StopGo recoding. 0.32% of 120,000 active; active means well fitted falling curve with a large enough effect; inconclusive means small, poorly fitted or top-dose-only effect; inactive means no such curve, though single readings can be large or run the other way; note: nearly all actives have a fitted effect of over 55% in size; overnight with compound
Numbers without * were called inactive; u = inconclusive; & = joins results of further samples; [ ] = another dose, or the depositor's remark. % is set by controls: 0 for no effect and ±100 for the full control effect; potency is the fitted concentration of half-maximal effect.

| Structure | StopGo FLuc | 2A Renilla |
| --- | --- | --- |
| Cn1c(=O)c2c(nc(NCCc3ccccc3)n2Cc2ccccc2Br)n(C)c1=O | 19%&4% | 1%&-10% |
| Cc1nc2ccn(Cc3cccs3)c(=O)c2cc1C(=O)NCc1ccccc1 | -14% | 128%[activator] |
| Cn1c(=O)c2cc(S(=O)(=O)NC(Cc3ccccc3)C(=O)Nc3ccc(F)cc3)ccc2n(C)c1=O (stereo not given) | -4% | 4% |
| O=C1c2ccccc2N2C(=O)CCC2(C(=O)Nc2ccc(F)c(F)c2)N1Cc1ccccc1 (stereo not given) | 1% | 19% |
| CCCNC(=S)Nc1cc(C(=O)OC)cc(C(=O)OC)c1 | 1% | 156%[activator] |
| CCOP(=S)(OCC)Oc1ccc2c(C)c(Cl)c(=O)oc2c1 | 65%[activator][11.5 µM] | 20% |
| CC(NC(=O)/C(=C\c1cccc(Br)c1)NC(=O)c1ccco1)C(=O)O (stereo not given) | 24% | 0% |
| CC(C)Oc1nc2ccccc2nc1N1CCC(C(=O)NCc2ccccc2Cl)CC1 | 4% | -5% |
| COc1cc(CNC(=O)CSCc2nc3cccnc3n2C2CCCCC2)cc(OC)c1OC | -21% | -30% |
| Cc1nn(-c2ccc(N3CCCC3)nn2)c(C)c1CCC(=O)Nc1ccc(F)c(Cl)c1 | 1% | u |
| Cc1ccc(C(=O)NCC(c2ccc3c(c2)OCO3)N2CCN(C)CC2)cc1C (stereo not given) | -12% | 16% |
| OCCNC(=S)Nc1ccccc1F | 7% | 0% |
| CN(C)CCNC(=O)Cc1ccc(NC(=O)N2CCCCc3ccccc32)cc1 | -11% | -1% |
| CCc1ccc(NC(=O)CCNS(=O)(=O)c2ccc3c(c2)oc(=O)n3C)cc1 | -4% | 42%[activator] |
| O=C(c1ccc2c(c1)N(Cc1c(F)cccc1Cl)C(=O)c1ccccc1S2)N1CCCC1 | -15% | 0% |

| Structure | StopGo FLuc | 2A Renilla |
| --- | --- | --- |
| O=C(CCc1ncc(-c2c(F)cccc2F)o1)Nc1ccccc1O | 70%[activator] | -2% |
| COc1ccccc1C(=O)Nc1cnc2sc3c(n2c1=O)CCC(C(C)(C)C)C3 (stereo not given) | 7% | 4% |
| O=C(Nc1nnc(S(=O)(=O)N2CCCCCC2)s1)c1ccc(Cl)cc1 | 4% | -9% |
| CC(Oc1ccc(Cl)cc1)C(=O)NN (stereo not given) | -3% | -4% |
| COC(=O)c1ccc(OCc2ccc(Cl)cc2)cc1 | 119%[activator] | 4% |
| CC(C)(C)c1ccc(C(=O)N(c2ccc(Cl)cc2)C2C=CS(=O)(=O)C2)cc1 (stereo not given) | -19% | -23% |
| Cc1cccc(OCC(=O)N2CCC(c3nc4ccccc4o3)CC2)c1C | -12%&-14% | 7%&11% |
| COc1cc(CCN)cc(OC)c1OC | -7%[27 µM] | -3%[129 µM] |
| Cc1ccc(F)cc1NC(=O)C1CCCN1S(=O)(=O)c1ccc(Br)cc1 (stereo not given) | 13% | 30% |
| C=CCN(CCC(=O)NC(=O)NC)Cc1ccccc1 | -6% | -16% |
| CCc1ccc(-c2cc(C(F)(F)F)on2)cc1S(=O)(=O)Nc1ccc2c(c1)OCCO2 | -2% | 172%[activator] |
| CC1CC1C(=O)Nc1ccc2c(c1)CCC2 (stereo not given) | 170%[activator] | 10% |
| Oc1ccccc1-c1nc(Oc2ccccc2)c2ccccc2n1 | 6% | -2% |
| CCCCn1c(CCC(=O)N(C)Cc2cc(C)ccc2OC)nc2c1c(=O)[nH]c(=O)n2CCCC | 11% | -3% |
| Brc1ccc(C=Nc2cccc3ccccc23)cc1 | 8% | -2% |

| Structure | StopGo FLuc | 2A Renilla |
| --- | --- | --- |
| CCCCOc1ccc(NC(=O)Cn2nnnc2-c2ccccc2F)cc1 | -11% | -9% |
| Cc1cc(C)c(S(=O)(=O)NCCc2sc(-c3cccnc3)nc2C)c(C)c1 | 23% | 348%[activator] |
| COc1ccccc1-c1noc(CSc2nnc(-c3ccccc3)n2-c2ccc(C)c(C)c2)n1 | -20% | 125%[activator] |
| CC(=O)c1cc2c(cc1NC(=O)c1cc3ccccc3o1)OCO2 | 23% | -17% |
| CCOC(=O)N1CCC(NC(=O)c2ccc3c(c2)N(Cc2cccc(C)c2)C(=O)c2ccccc2S3(=O)=O)CC1 | 18% | 103%[activator] |
| CC(O)CNc1nc2c(c(=O)n(Cc3ccc(Cl)c(Cl)c3)c(=O)n2C)n1C (stereo not given) | -19% | -20% |
| CC(C)(C)OC(=O)N1CCC(c2c(C(=O)N3CCN(c4ccccc4)CC3)cnn2-c2ccccc2)CC1 | -12% | -3% |
| Cc1ccc(-c2noc(CN(C3CCCCC3)S(=O)(=O)c3ccc(F)cc3)n2)cc1 | -15% | -9% |
| COc1ccc(-c2nc3c(c(SCC(=O)N4CCCCC4)n2)Cc2c(CO)cnc(C)c2O3)cc1 | 3% | 7% |
| CC(C)OCc1ccc(CNC(=O)CNC(=O)C2CCCC2)cc1 | 6% | 29% |
| Cc1ccc(NC(=O)C2CCN(c3nnc(C)c4c(C)n(-c5ccccc5)nc34)CC2)cc1Cl | -3% | 7% |
| COc1ccccc1CNC(=O)NCc1noc2ccc(C)cc12 | -4% | 232%[activator] |
| Cc1cnc(NC(=O)c2nn(C(C)C)c(=O)c3ccccc23)s1 | -1% | -3% |
| CCNC(=O)NC(=O)CSc1nnc(-c2ccccc2)c(-c2ccccc2)n1 | 11% | -3% |
| CSc1ccccc1C(=O)Nc1nc(-c2nc3ccccc3s2)cs1 | 97%[activator] | -5% |

| Structure | StopGo FLuc | 2A Renilla |
| --- | --- | --- |
| O=C(CSc1ncnc2ccccc12)Nc1ccccc1C(=O)Nc1ccccc1 | 0% | -8% |
| N#CCc1nc(N)c2ccccc2n1 | 203%[activator] | 11% |
| O=C(/C=C/c1ccc(Cl)cc1Cl)c1cc(Cl)ccc1O | 18% | -3% |
| Cc1c(C(=O)CSc2nnc(C3CC3)n2C)sc2ccccc12 | 0% | 14% |
| COc1ccccc1OC(C)C(=O)c1ccc(C)cc1 (stereo not given) | 79%[activator] | 20% |
| O=C(CCCCn1c(=O)[nH]c2ccsc2c1=O)N1CCN(c2cccc(C(F)(F)F)c2)CC1 | u | 9% |
| O=C(CN1CCN(c2ccccc2)CC1)Nc1nc(-c2ccc(Cl)cc2)cs1 | 7% | 2% |
| Cn1c(=O)c2c(SCC(=O)Nc3ccccc3C(F)(F)F)nc(C3CCCC3)nc2n(C)c1=O | -14% | 0% |
| O=c1[nH]cnc2c1ncn2[C@H]1CC[C@@H](CO)O1 | -4%[11.5 µM] | 5% |
| COc1ccc(C(=O)Nc2noc3ccccc23)cc1 | -11% | 29% |
| Cc1cccc(NC(=O)COC(=O)CCc2nc3ccccc3s2)c1C | 23% | 13% |
| CCc1cc2c(cc3c(=O)n(CC(=O)N4CCN(c5cc(Cl)ccc5C)CC4)ncn32)s1 | 3% | -1% |
| O=C(Cn1c(=O)nc(-c2ccccc2)c2cc(Cl)ccc21)NCCCc1ccccc1 | -9% | -10% |
| O=C(O)CC(c1ccncc1)c1c[nH]c2ccccc12 (stereo not given) | 0% | -7% |
| O=C(Cc1ccccc1[N+](=O)[O-])Nc1ccc2oc(C3CC3)nc2c1 | 106%[activator] | 49%[activator] |

| Structure | StopGo FLuc | 2A Renilla |
| --- | --- | --- |
| COCCCNS(=O)(=O)c1cccc2cc(C)cnc12 | -10% | 71%[activator] |
| COc1cccc(Cn2c(C)c(CNCCc3c[nH]c4ccccc34)c(C(=O)O)c2C)c1 | 6% | 27% |
| CN(CC(=O)Nc1ccccc1Cl)CC(=O)N1CCC(Cc2ccccc2)CC1 | 8% | -4% |
| CCN(CC)C(=O)Cn1c(=O)n(CCCCCC(=O)NCc2ccc3c(c2)OCO3)c(=O)c2sccc21 | 0% | -10% |
| Cc1ccc(C(CNC(=O)COc2ccccc2C)N2CCCCCC2)cc1 (stereo not given) | u | u |
| COc1ccc(Nc2ncnc3c2c(-c2ccccc2)cn3-c2ccc(C)c(Cl)c2)cc1OC | -15% | -5% |
| COc1cccc(OC)c1C(=O)Nc1ccc(-c2nc3ccc(C)cc3o2)cc1 | 107%[activator] | 0% |
| CC(C)Cc1nnc(NC(=O)c2cc(=O)c3ccccc3o2)s1 | 91%[activator] | 1% |
| CC(NC(=O)NOCc1ccccc1)c1ccc(C#N)cc1 (stereo not given) | 14% | -4% |
| Cc1ccc(C(=O)C(C)OC(=O)C2CC3CCCC(C2)C3=O)cc1C (stereo not given) | 23% | 4% |
| CCc1cc(C(c2ccc(OC)cc2)N2CCOCC2)c(NC(=O)c2ccco2)s1 (stereo not given) | 5% | -6% |
| CC(C)c1noc(C(C)Nc2ccc3oc(C4CC4)nc3c2)n1 (stereo not given) | 15% | -15% |
| CC(c1nnc(-c2cccc(Cl)c2)o1)N1CCN(c2cnn(-c3ccccc3)c(=O)c2Cl)CC1 (stereo not given) | -13% | -25% |
| CCC(Sc1nc2nccnc2c(=O)n1Cc1ccc(Cl)cc1)C(=O)NC1CCCCC1 (stereo not given) | -6% | 7% |
| CCN1CCN(Cc2nc3cc(NC(=O)c4ccccc4[N+](=O)[O-])ccc3n2CC)CC1 | -21% | -9% |

| Structure | StopGo FLuc | 2A Renilla |
| --- | --- | --- |
| CC(Cn1cccn1)NC(=O)c1cc(Cl)c2c(c1)OCO2 (stereo not given) | 0% | 4% |
| Cc1ccc(-c2cc(=O)c3cc(C)ccc3o2)cc1 | 0% | 107%[activator] |
| CCc1ccc(NC(=O)C(=O)NCCc2csc(-c3cccc(F)c3)n2)cc1 | -16% | 11% |
| COc1ccc(C(C)=O)cc1CSc1nc(Nc2ccc(F)c(F)c2)c2ccccc2n1 | -20% | 1% |
| CC(NC(=O)c1cc(-c2ccco2)nc2ccccc12)C(=O)NCc1ccccc1 (stereo not given) | 23% | 26% |
| Cc1nc2c(C)cccn2c1/C(O)=C1\C(=O)C(=O)N(CCN(C)C)C1c1ccc(Br)cc1 (stereo not given) | 5% | -3% |
| CC(=O)Nc1ccc(NC(=O)c2cc3sccc3n2Cc2ccc(Cl)cc2)cc1 | -5% | -13% |
| Cc1c(NC(=O)Cn2cnc3c2c(=O)n(C)c(=O)n3C)cccc1[N+](=O)[O-] | -2% | -6% |
| CC(Sc1n[nH]c(=O)n1CCc1ccccc1)C(=O)c1cccc(Cl)c1 (stereo not given) | u | u |
| COC(=O)[C@]12C[C@H](CC(=O)NCC34CC5CC(CC(C5)C3)C4)C(=O)N(Cc3ccccc3)C1=C[C@H](COCc1ccccc1)O[C@@H]2C | u | u |
| COc1ccc(-c2csc(N)c2C#N)cc1 | 0% | 14% |
| C=CCn1c(C(=O)NCCCOC)cc2cc(S(=O)(=O)N(C)C)ccc21 | 4% | -2% |
| Cc1ccc(C)c(/C=C/c2onc(C)c2S(=O)(=O)N2CCCC(C(=O)NC3CCCC3)C2)c1 (stereo not given) | -2% | -4% |
| COc1ccc2c(c1)CC(C(=O)NCCN1CCN(c3ccccc3F)CC1)CO2 (stereo not given) | -16% | 12% |
| CCOC(=O)COc1ccc2c(=O)c(Oc3ccccc3Cl)coc2c1 | -8% | 3% |

| Structure | StopGo FLuc | 2A Renilla |
| --- | --- | --- |
| CC(C)(C)n1nnnc1SCc1csc(Nc2ccccc2)n1 | u | u |
| O=C(O)c1cc(-c2ccc3ccccc3c2)nc2ccc(F)cc12 | 43%[activator] | u |
| CCc1ccc(C(=O)Nc2cccc(-c3nc4cc(C(C)C)ccc4o3)c2)cc1 | 9% | -2% |
| CCC(C)(C)C1CCC(NC(=O)Cn2nc(C)c3ccccc3c2=O)CC1 (stereo not given) | 3% | -1% |
| CC(C)(C)NC[C@H](O)c1ccc(O)cc1Cl | -18% | -10% |
| COc1ccc(S(=O)(=O)Nc2ccc(Nc3cc(N4CCCCC4)nc(C)n3)cc2)cc1 | u | -17% |
| Cc1ccc(C)c(-c2csc(-c3nc(-c4ccccc4)cs3)n2)c1 | 34%[activator] | -11% |
| Cc1ccc(-c2ccc3cc(C)ccc3n2)cc1 | 95%[activator] | -6% |
| COC(=O)c1ccccc1NC(=O)Cn1c(=O)n(CCCC(=O)NCc2ccccc2OC)c(=O)c2ccccc21 | -18% | -10% |
| CC(C)c1ccc(NC(=O)C2CCN(c3nc(-c4ccc(C(C)C)cc4)no3)CC2)cc1 | u | -19% |
| O=Cc1c(Br)cc(Br)c(O)c1Br | 19% | -6% |

Some of the compounds tested; count on the stated rates, not on these rows.
